Compound activity: PubChem, several laboratories
GSK3A inh: blocks human GSK-3 alpha kinase; P49840; ADP-Glo luminescence, 60 min; inhibition, % at 10 µM; 320,000 compounds, 0.1% hits; AID 2650;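 in the data active = inhibition above about 50%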;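 also: GST-tagged GSK-3 alpha with peptide substrate and 25 µM ATP; 0% = DMSO neutral wells and 100% = GW8510 positive control wells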
Target sequence (P49840 whole entry, looked up): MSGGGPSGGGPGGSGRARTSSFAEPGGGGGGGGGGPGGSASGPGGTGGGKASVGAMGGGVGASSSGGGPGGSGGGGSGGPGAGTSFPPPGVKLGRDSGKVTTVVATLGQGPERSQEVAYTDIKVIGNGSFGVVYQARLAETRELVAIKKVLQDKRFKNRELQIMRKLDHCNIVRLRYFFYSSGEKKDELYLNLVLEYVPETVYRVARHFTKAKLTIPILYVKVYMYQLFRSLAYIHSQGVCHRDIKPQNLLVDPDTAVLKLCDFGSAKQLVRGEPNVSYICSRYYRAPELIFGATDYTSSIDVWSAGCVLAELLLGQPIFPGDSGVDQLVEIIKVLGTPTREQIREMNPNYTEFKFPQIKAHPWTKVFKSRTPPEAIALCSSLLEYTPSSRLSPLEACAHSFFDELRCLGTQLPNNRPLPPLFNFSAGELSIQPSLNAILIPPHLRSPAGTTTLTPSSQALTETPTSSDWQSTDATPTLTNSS
KCNK9 block: human KCNK9 channel inhibition | HEK293 KCNK9, FluxOR thallium flux fluorescence; active compounds read low | 310,000 compounds, 1.2% hits | B-score at 10 µM | AID 488922;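 active = ratio B-score over 3 SD below the library mean, with starting fluorescence within 5 SD of its mean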;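 also: negative B-score means less thallium flux so channel inhibition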
Target sequence (Q9NPC2 whole entry, looked up): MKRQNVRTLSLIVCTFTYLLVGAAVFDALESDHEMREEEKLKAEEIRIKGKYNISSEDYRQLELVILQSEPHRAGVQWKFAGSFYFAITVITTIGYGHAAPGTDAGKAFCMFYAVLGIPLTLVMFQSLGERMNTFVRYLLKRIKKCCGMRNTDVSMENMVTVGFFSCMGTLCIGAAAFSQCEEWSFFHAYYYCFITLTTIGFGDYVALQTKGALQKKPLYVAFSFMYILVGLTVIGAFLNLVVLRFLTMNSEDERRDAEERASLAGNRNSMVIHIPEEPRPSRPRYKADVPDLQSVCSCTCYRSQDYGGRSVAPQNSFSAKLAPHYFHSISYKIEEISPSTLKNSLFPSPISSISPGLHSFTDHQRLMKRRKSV
GSK3B inh: inhibitors of human GSK3beta kinase; 300,000 compounds, 0.038% hits; activity score (negative = inhibition), % at 10 µM; P49841; GST-GSK3beta kinase, ADP-Glo luminescence, 60 min; active compounds read low;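 active = more than half of replicate wells score below -50%, meaning over 50% inhibition versus plate controls; inconclusive = some replicates but at most half score below -50%; inactive = no replicate scores below -50%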;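 also: 0% = median DMSO wells and -100% = median GW8510 positive control wells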
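Assay system: GST-fused GSK3beta enzyme, cell-free / Medium: Tris pH 7.5 buffer with MgCl2, DTT, BSA, heparin / Also added: peptide substrate plus 25 µM ATP (final) / Compound: 10 µM single point / Timing: kinase reaction with compound 60 min at room temperature / Detection: ADP-Glo luminescence / Benchmarks: DMSO neutral wells and GW8510 at 20 µM as positive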
PolyA inhibitor: yeast polyadenylation inhibition; S. cerevisiae SKY197-pL101 polyadenylation reporter, beta-gal luminescence; efflux-impaired pdr1/pdr3 knockout yeast; score 100 = 6 SD above DMSO; calls only at 12 µM; 300,000 compounds, 0.02% hits;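 active = lowest replicate activity score at least 50, where 100 means six control SD above control mean; inconclusive = lowest score under 50 but half or more replicates reach 50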;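 also: yeast exposed to compound for 9 h at 30 °C; higher score means more reporter readthrough which indicates perturbed polyadenylation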
RGS4 pot: RGS4 potentiation or activation | HEK293 M3R/inducible RGS4, carbachol calcium flux Fluo4; active compounds read low | AID 463111 | B-score at 10 µM | 310,000 compounds, 0.92% hits;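 active = B-score of the integrated calcium signal more than 4 SD below the library mean, with starting fluorescence not abnormally high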;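 also: negative B-score means reduced calcium response which marks RGS4 activation or potentiation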
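Test system: HEK293 cells with stable M3R and inducible RGS4; also added: carbachol at ECmax as muscarinic agonist stimulus; schedule: dye loading 30 min 37 °C, buffer rest 30 min RT; technique: kinetic calcium fluorescence imaging with Fluo4-AM dye, 2 µM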
KCNK3 inh: human KCNK3 channel inhibition, primary screen; CHO-KCNK3 thallium flux, FluxOR fluorescence; active compounds read low; B-score at 10 µM; 340,000 compounds, 0.84% hits;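 active = B-score under library mean minus 4 SD, starting fluorescence ratio at most library mean plus 5 SD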;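 also: more negative B-score means stronger inhibition of thallium flux through KCNK3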
KCNQ1 block: blocks the human KCNQ1 potassium channel; 310,000 compounds, 1.3% hits; P51787; CHO-K1 KCNQ1, FluxOR thallium flux fluorescence; active compounds read high; B-score at 10 µM;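 active = compounds whose thallium flux B-score, printed positive for inhibition, exceeds three library SD while starting fluorescence stays within three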;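 also: channel opened by potassium depolarization with thallium stimulus after 20 min compound exposure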
KCNQ1 act: human KCNQ1 channel potentiation or activation. CHO-K1 KCNQ1, thallium flux FluxOR fluorescence; active compounds read high. B-score at 10 µM. 310,000 compounds, 0.35% hits;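 active = fluorescence ratio B-score, a plate-corrected score, at least three library SD, with initial intensity B-score within 5 SD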
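Schedule – 37 °C overnight plating, 90-min dark dye load, 20-min compound pretreatment · System – stable KCNQ1 CHO-K1 line · Probe or stimulus – thallium- and potassium-containing depolarizing buffer · Measured by – kinetic FluxOR fluorescence, 10 s baseline plus 110 s post-stimulus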
Dyrk1A ADPGlo: blocks rat Dyrk1A kinase activity; Q63470; ADP-Glo luminescence, NFATc1 peptide; inhibition, % at 12.5 µM; 310,000 compounds, 0.43% hits; AID 504441; in the data active = inhibition above about 50%;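 also: plate controls were vehicle with enzyme for no effect and no enzyme for full effect; many of its hits are not listed in these tables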
HDAC3 inh: human HDAC3 inhibition. 320,000 compounds, 0.15% hits. inhibition, % at 8.3 µM. O15379. recombinant HDAC3, fluorogenic peptide/trypsin coupled, fluorescence; in the data active = inhibition above about 26%, passing the limit was not always enough; inconclusive = no clear call, values can overlap the other calls
Numbers without * were called inactive; i = inactive; ? = inconclusive; · = not tested or not shown; & = joins results of further samples. An excerpt, so the mix of outcomes need not match the whole.

SMILES	GSK3A inh	KCNK9 block	GSK3B inh	PolyA inhibitor	RGS4 pot	KCNK3 inh	KCNQ1 block	KCNQ1 act	Dyrk1A ADPGlo	HDAC3 inh
COc1cc2c(cc1O)CC[C@@H]1[C@@H]2CC[C@]2(C)[C@@H](O)CC[C@@H]12	-1	i	8	i	i	i	i	i	17	4
O=C(O)CSc1nnc(Cn2c(=O)sc3ccccc32)n1-c1cccc(Cl)c1	0	i	-8	i	i	i	i	i	1	-4
C/C(N)=C(/C#N)C(=O)COC(=O)CNC(=O)c1ccc(Cl)cc1Cl	0	i	-2	i	i	i	i	i	-2	-3
CC(C)COC(=O)Nc1nnc(SCCOc2ccccc2)s1	-4	i	-4	i	i	i	i	i	-2	-3
NC(=Nc1ccccc1)Nc1ccccc1	-4	i	1	i	-8.5*	i	i	i	1	3
CCN(CC)CCOCCOC(=O)C1(c2ccccc2)CCCC1	-6	i	-1	i	i	i	i	i	-11	0
O=C(N/N=C/c1ccc(O)c(O)c1)c1ccc(CSc2cccc3cccnc23)cc1	0	i	1	i	i	i	i	i	2	6
CCCCn1c(N)c(N(CC(C)C)C(=O)c2ccc(S(=O)(=O)N3CCCCC3)cc2)c(=O)[nH]c1=O	0	i	2	i	i	i	i	i	3	-3
O=C(CCN1C(=O)c2ccccc2C1=O)N1CCN(C2c3ccccc3-c3ccccc32)CC1	3	i	-1	i	i	i	i	i	-1	1
CC[C@H](C)C(=O)O[C@H]1CCC=C2C=C[C@H](C)[C@H](CC[C@@H]3C[C@@H](O)CC(=O)O3)[C@H]21	-5	i	-4	i	i	i	i	i	-4	4
O=C(COC(=O)CCc1ccccc1)Nc1ccc(F)cc1Cl	-2	i	0	i	i	i	i	i	-3	-4
CCOC(=O)c1c(C)[nH]c(C)c1S(=O)(=O)NCC1CCN(Cc2ccccc2OC)CC1	-1	i	0	i	i	i	i	i	·	3
O=C(N/C(=C/c1ccc(Cl)cc1)C(=O)N1CCOCC1)c1ccccc1	1	i	0	i	i	i	i	i	0	5
COc1cc(NS(C)(=O)=O)c(OC)cc1NC(=O)c1cccc(F)c1	-1	i	1	i	i	i	i	i	3	-1
O=C(NC1=NCCS1)c1cc(-c2ccc(-c3ccccc3)cc2)nc2ccccc12	-2	i	3	i	i	i	i	i	0	-1
CC1(C)[C@@H](O)CC[C@]2(C)[C@H]3C(=O)C=C4[C@@H]5C[C@@](C)(C(=O)O)CC[C@]5(C)CC[C@@]4(C)[C@]3(C)CC[C@@H]12	-4	i	4	i	i	i	i	i	-2	-3
Cc1ccc(-c2onc3ccc(C(=O)O)cc23)cc1	14	i	1	i	i	i	i	i	29	5
CCC(C)(C)NC(=O)CC(c1ccc(OC)cc1)n1cccc1 (stereo unspecified)	0	i	2	i	i	i	i	i	1	-2
Cc1cc(C)nc(N/N=C/C2=C(N3CCOCC3)C(=C/c3ccccc3)/CC2)n1	0	i	0	i	i	i	i	i	12	-5
CCCn1c(=O)[nH]c(=O)c2[nH]cnc21	1	i	-4	i	i	i	i	i	3	0
CC(=O)c1ccc(NC(=O)NNS(=O)(=O)c2ccc([N+](=O)[O-])cc2)cc1	-5	i	-27	i	i	i	i	i	3	·
CC(C)(C)Cc1nnc(NS(=O)(=O)c2ccc([N+](=O)[O-])cc2)s1	-6	i	·	i	i	i	i	i	-8	9
O=C(CNC1CCCC1)Nc1ccc(N2CCCCCC2)cc1	-1	i	3	i	-8*	i	i	i	-5	-9
C#C[C@]1(O)CC[C@H]2[C@@H]3CCC4=CC(=O)CC[C@@H]4[C@H]3CC[C@@]21C	1	i	3	i	i	i	i	i	12	2
O=C(CSc1n[nH]c(-c2cccnc2)n1)Nc1ccccc1C(F)(F)F	1	i	·	i	i	i	i	i	-3	4
CCn1c2ccccc2c2cc(NC(=O)C(C)C)ccc21	-5	i	0	i	i	i	i	i	-3	?
Cn1c(CCN2CCN(c3ccccc3)CC2)nc2cc(NC(=O)c3ccco3)ccc21	2	i	-5	i	i	i	i	i	2	5
CC1(C)C([N+](=O)[O-])C(c2ccccc2O)NC(c2ccccc2O)C1[N+](=O)[O-] (stereo unspecified)	1	i	1	i	i	i	i	i	10	9
Cc1cnc(CN(C)C(=O)c2ccc3oc(Cc4ccccc4)nc3c2)[nH]1	3	i	0	i	i	i	i	i	3	-3
CN1CCN(CC/C=C2/c3ccccc3Sc3ccc(S(=O)(=O)N(C)C)cc32)CC1	2	i	1	i	i	i	i	i	9	-7
NS(=O)(=O)c1ccc(NC(=O)CN2CCN(Cc3ccccc3)CC2)cc1	-3	i	0	i	i	i	i	i	2	10
CCNC(=O)[C@@H]1CCCN1C(=O)[C@H](CCCN=C(N)N)NC(=O)[C@H](CC(C)C)NC(=O)[C@@H](CC(C)C)NC(=O)[C@H](Cc1ccc(O)cc1)NC(=O)[C@H](CO)NC(=O)[C@H](Cc1c[nH]c2ccccc12)NC(=O)[C@H](Cc1cnc[nH]1)NC(=O)[C@@H]1CCC(=O)N1	·	i	-13	i	i	·	i	i	·	·
O=C(NCCCn1ccnc1)c1cc2c(ccc3ccccc32)o1	·	i	·	i	i	·	i	i	·	-47
CNC[C@H](O)c1ccc(O)c(O)c1	0	i	0	i	i	i	i	i	14	1
C[C@@H]1C[C@H]2[C@@H]3CCC4=CC(=O)C=C[C@]4(C)[C@@]3(F)[C@@H](O)C[C@]2(C)[C@@]1(O)C(=O)COP(=O)(O)O	-3	i	6	i	i	i	i	i	-7	5
Cc1ccccc1CNc1ccc(C(CC(N)=O)NC(=O)c2ccccc2)cc1[N+](=O)[O-] (stereo unspecified)	5	i	1	i	i	i	i	i	3	1
CCOC(=O)N1CCC(=C2c3ccc(Cl)cc3CCc3cccnc32)CC1	0	i	0	i	i	i	i	i	4	?
COc1cccc(-n2c([S-])c(C(=O)Nc3ccc(S(=O)(=O)N4CCOCC4)cc3)[n+]3cc(C(N)=O)ccc23)c1	1	i	1	i	i	i	i	i	3	·
COc1ccc2cc([C@@H](C)C(=O)O)ccc2c1	-6	·	·	·	·	i	·	·	8	-7
CCC(C)C(=O)OC1CCC=C2C=CC(C)C(CCC3CC(O)CC(=O)O3)C21 (stereo unspecified)	·	·	·	·	·	i	·	·	-3	·
O=C(O)C1CCN(S(=O)(=O)/C=C/c2ccccc2)CC1	-6	i	0	i	i	i	i	i	-5	-1
Nc1ccc(C(=O)O)cc1	-3&-2&1	i	1&2&-3	i	i	i	i	i	1&-2&7	1&-5&3
CC1CCc2cc(F)cc3c(=O)c(C(=O)O)cn1c23 (stereo unspecified)	-1	i	0	i	i	i	i	i	8	4
CCCc1c(O)nc(SC2CC(=O)N(c3ccc(C)c(Cl)c3)C2=O)[nH]c1=O (stereo unspecified)	-3	i	0	i	i	i	i	i	·	8
CC1CCCC(C)N1C(=O)Cn1cc(/C=C2/C(=O)Nc3ccccc32)c2ccccc21 (stereo unspecified)	-1	i	-1	i	i	i	i	i	2	18
OC1(c2ccccc2)CCN(Cc2ccccc2)CC1	0	i	0	i	i	i	i	i	-3	-1
O=C(CCC1CCCN(C(=O)c2cccc(F)c2)C1)N1CCN(c2ccccn2)CC1 (stereo unspecified)	-4	i	4	i	i	i	i	i	-2	4
CN1C(C(=O)Nc2ccccn2)=C(O)c2sccc2S1(=O)=O	-3	i	2	i	i	i	i	i	3	6
CCn1c(CNc2ccc(OC)cc2)nnc1SCC(=O)N1CCCc2ccccc21	-1	i	-3	i	i	i	i	i	-6	-2
CC(C)(C)NC(=O)[C@H]1CC[C@H]2[C@@H]3CC[C@H]4NC(=O)C=C[C@]4(C)[C@H]3CC[C@]12C	-1	i	3	i	i	i	i	i	1	2
NC12CC3CC(CC(C3)C1)C2	-3	i	3	i	i	i	i	i	-3	-7
O=C(N/C(=C\c1ccc([N+](=O)[O-])cc1)C(=O)N1CCOCC1)c1ccccc1	-1	i	0	i	i	i	i	i	-1	6
CN1[C@@H]2CC[C@H]1CC(OC(=O)[C@H](CO)c1ccccc1)C2 (stereo partly specified)	0	i	-1	i	i	i	i	i	-2	-1
Cc1c(OCC(=O)OC(C)C)ccc2c3c(c(=O)oc12)CCC3	0	i	3	i	i	i	i	i	2	-2
N#C/C(=C/c1cccnc1)c1ccccc1	-1	i	0	i	i	i	i	i	1	3
O=C(O)CC(O)C(=O)O (stereo unspecified)	-3	i	1	i	i	i	i	i	0	-6
CC(=O)OCC(=O)NCCCOc1cccc(CN2CCCCC2)c1	0	i	-2	i	i	i	i	i	10	7
CN(C)CCOC(c1ccccc1)c1ccccc1	-1	i	0	i	i	i	i	i	6&12	1
CC1(C)S[C@@H]2[C@H](NC(=O)C(NC(=O)N3CCNC3=O)c3ccccc3)C(=O)N2[C@H]1C(=O)O (stereo partly specified)	0	i	-4	i	i	i	i	i	2	-2
C[C@H](NC(CCc1ccccc1)C(=O)O)C(=O)N1CCC[C@H]1C(=O)O (stereo partly specified)	-3	i	2	i	i	·	i	i	·	-3
COc1cccc(C(=O)NN/C(C)=C/C(=O)C(F)(F)C(F)(F)C(F)(F)F)c1	-5	i	5	i	i	i	i	i	-7	-2

Another view of 7 compounds above:
mol | GSK3A inh | KCNK9 block | GSK3B inh | PolyA inhibitor | RGS4 pot | KCNK3 inh | KCNQ1 block | KCNQ1 act | Dyrk1A ADPGlo | HDAC3 inh
CCn1c(CNc2ccc(OC)cc2)nnc1SCC(=O)N1CCCc2ccccc21 | -1 | i | -3 | i | i | i | i | i | -6 | -2
O=C(N/C(=C\c1ccc([N+](=O)[O-])cc1)C(=O)N1CCOCC1)c1ccccc1 | -1 | i | 0 | i | i | i | i | i | -1 | 6
COc1cccc(C(=O)NN/C(C)=C/C(=O)C(F)(F)C(F)(F)C(F)(F)F)c1 | -5 | i | 5 | i | i | i | i | i | -7 | -2
C[C@H](NC(CCc1ccccc1)C(=O)O)C(=O)N1CCC[C@H]1C(=O)O (stereo partly specified) | -3 | i | 2 | i | i | · | i | i | · | -3
NC12CC3CC(CC(C3)C1)C2 | -3 | i | 3 | i | i | i | i | i | -3 | -7
CC(=O)OCC(=O)NCCCOc1cccc(CN2CCCCC2)c1 | 0 | i | -2 | i | i | i | i | i | 10 | 7
O=C(O)CC(O)C(=O)O (stereo unspecified) | -3 | i | 1 | i | i | i | i | i | 0 | -6
